Screening results deposited in PubChem by ICCB-Longwood Screening Facility, Harvard Medical School.
Sa helicase inh: S. aureus DNA helicase inhibition | purified S. aureus helicase, fluorescence unwinding assay; about half of the hits fall short of the stated cut | inhibition, %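 (tested at about 80 µM)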 | hit rate 0.05% among 120,000 | AID 485395;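 active = both duplicates at 50% or more, or one of them with a favoured structure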;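 also: 0% = mean of negative control wells and 100% = mean of positive control wells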
MgrA DNA FP: modulators of Staphylococcus aureus MgrA DNA binding | AID 602314 | fluorescence polarization | hit rate 0.13% among 84,000 | inhibition, %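 (about 10 µg/mL by stock and volumes)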;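 active = above 50% in either of two replicates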;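 also: 0% = protein plus DNA without compound and 100% = DNA alone without protein; higher means less MgrA bound to DNA so lower polarization; one replicate is shown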
* hit, by the source's call; . = not tested or not shown. An excerpt; rates above refer to the full screens.

compound | Sa helicase inh | MgrA DNA FP
COc1ccc(OCCn2cc(C(=O)C(C)(C)C)c3ccccc32)cc1 | 8.0 | -1.1
O=C(O)CSc1nc2ccccc2n1C1CCCCC1 | . | -0.2
COc1ccc(CNCC(O)c2nnn(C)n2)cc1OC (configuration not stated) | 4.0 | -2.2
O=C1c2ccccc2S(=O)(=O)N1Cc1cc(=O)[nH]c(=O)[nH]1 | 10.0 | .
C/C=C/C1OCC2C(C)C=C(C)C1C2C (configuration not stated) | -1.0 | -2.1
NC(=O)c1cc2cc(Br)ccc2oc1=O | 13.0 | .
CCn1c(Sc2ccc(N)cc2Cl)nc2ccccc21 | 10.0 | -0.5
O=C(NC1CCCC1)C(c1ccsc1)N(C(=O)Cc1cccs1)c1ccccc1 (configuration not stated) | 9.0 | -1.2
CN(CCC#N)c1ccc(/C=C2\CC/C(=C\c3ccc(N(C)CCC#N)cc3)C2=O)cc1 | . | 3.0
COc1cccc(OCc2nnc(SCc3ccccc3)n2C)c1 | 17.0 | -3.0
O=c1cc(CSc2nnnn2-c2ccccc2)[nH]c2[nH]n(-c3ccccc3)c(=O)c12 | 10.0 | -0.2
Cc1[nH]n(-c2ccccc2)c(=O)c1C(=O)C(F)(F)F | 14.0 | -2.7
CCOC(=O)c1cnc2cc(-c3cccs3)nn2c1C | . | 0.1
CNCc1cc(=O)[nH]c2ccccc12 | -1.0 | -1.1
CCC(C)NC(=O)c1ccc2c(=O)n(Cc3ccc(OC)cc3)c(=O)[nH]c2c1 (configuration not stated) | 8.0 | 1.1
CCOC(=O)c1cnc(SCc2c(C)cc(C)cc2C)nc1C(F)(F)F | . | -0.3
CCOc1ccc(Br)cc1S(=O)(=O)Nc1ccc(N)cc1 | -7.0 | .
CCn1cc(C(=O)NCCc2ccc(OC)c(OC)c2)c(=O)c2cc(S(=O)(=O)N(C)C)ccc21 | 4.0 | .
CN(C)C(=O)C12CC3CC(CC(C3)C1)C2 | -8.0 | -1.5
CSc1nc(NC(C)=O)nc(C)c1Br | 3.0 | -3.3
COc1ccc(-c2onc(C)c2C)cc1S(=O)(=O)Nc1ccc(N2CCC(C)CC2)cc1 | 18.0 | .
CC1CN(c2nc(C(F)(F)F)cc(=O)[nH]2)CC(C)O1 (configuration not stated) | . | -1.2
O=C(NCCC1=CCCCC1)c1cc(-c2ccccn2)nc2ccccc12 | 6.0 | 1.6
COCCNC(=S)Nc1ccccc1 | 3.0 | .
CCN(CC)S(=O)(=O)c1ccc(O)cc1 | -13.0 | 1.1
Cc1cc(N=CN(C)C)no1 | . | 2.1
CCOC(=O)c1oc2ccccc2c1COC(=O)CNC(=O)c1cccs1 | -6.0 | .
c1nc(Nc2ccc(N3CCOCC3)cc2)c2ccsc2n1 | -7.0 | .
CN(C(=O)c1ccc(N)cc1)c1ccccc1 | -9.0 | .
CCCCNC(=O)Cn1nnc(-c2cccc(C(F)(F)F)c2)n1 | -12.0 | .
OCCCc1nc2ccccc2n1Cc1ccc(F)cc1 | 10.0 | .
O=C(Nc1ccc(C(F)(F)F)cc1)N1CCCN(c2ncc(C(F)(F)F)cc2Cl)CC1 | . | 0.7
O=C(NC1CCCC1)N1CC=C(c2c[nH]c3ccccc23)CC1 | -5.0 | .
Cc1ccccc1C1CC(=O)c2c(ccc3ccccc23)N1 (configuration not stated) | 6.0 | 0.2
CCOC(=O)c1c(C)n(-c2ccccc2)c2ccc(OC(=O)c3ccco3)cc12 | -13.0 | .
COc1ccccc1CNC(=O)[C@@H]1CCCN1S(=O)(=O)c1ccc(C)cc1 | 23.0 | .
COC(=O)C1CC23C=CNC4CCC5(c6ccccc6NC15C2C)C43 (configuration not stated) | 12.0 | -7.7
CC1=C(C(=O)OCC2CCCO2)C(c2coc3ccc(Cl)cc3c2=O)C2=C(CC(C)(C)CC2=O)N1 (configuration not stated) | . | -1.0
COC(=O)C1=CN(C2CC2)C=C(C(=O)OC)C1c1ccc(OC(F)(F)F)cc1 | 12.0 | .
CCc1nn2c(=O)cc(CN(C)Cc3ccccc3)nc2s1 | 22.0 | .
COc1ccc2c(c1)CCc1c(C(=O)NCc3ccccc3)noc1-2 | -14.0 | .
CC(O)(C#CCN1CCCCC1)C1CC1 (configuration not stated) | 6.0 | 2.8
COc1ccccc1N1CCN(S(=O)(=O)c2ccc(Cl)s2)CC1 | -6.0 | 0.2
Cn1ccnc1SCc1cc(=O)[nH]c2ccccc12 | -9.0 | -1.6
O=C(N=Nc1c(O)[nH]c2cc3c(cc12)OCCCO3)C1CCCCC1 | -6.0 | .
Cc1cc(OC(C)C(=O)O)cc(C)c1Cl (configuration not stated) | 5.0 | -3.0
Cc1nn2cnnc2c(C)c1CCC(=O)N1CCCC1 | -3.0 | .
COc1cc(Br)c(CCC#N)cc1OC | . | 1.6
CCOC(=O)C1=CN(O)/C(=C\N=O)C=C1 | -3.0 | -0.5
CCc1ccc(NC(=O)Nc2ccc3nc(N4CCN(C)CC4)cc(C)c3c2)cc1 | 5.0 | .

Additional records:
compound | Sa helicase inh | MgrA DNA FP
CCC1CSC(Nc2ccccc2OC)=N1 (configuration not stated) | 13.0 | .
CCCCOc1ccc(C2=N/C(=C\c3cc(OC)c(OC)c(OC)c3)C(=O)O2)cc1 | . | -0.2
O=c1[nH][nH]c(=O)c2c(N=Cc3cccc4ccccc34)cccc12 | -12.0 | 1.1
CC(=C\c1ccccc1)/C=C1/SC(=S)N(C2CCCCC2)C1=O | 8.0 | 1.1
CC1CCN(CCCNC(=O)Cn2ncc3c([nH]c4ccccc43)c2=O)CC1 | -15.0 | .
Cc1ccc(C(=O)NC(C)C(=O)NC2CCCCC2)cc1 (configuration not stated) | -20.0 | .
C=CCn1c(O)c(N=O)c2ccccc21 | 6.0 | .
CC(=O)Nc1nonc1NC(=O)C12CC3CC(CC(C3)C1)C2 | 17.0 | 0.2
CCN(CC)CCCN1C(=O)C2C3C=CC(C2C1=O)C1C2C(=O)N(CCCN(CC)CC)C(=O)C2C31 (configuration not stated) | . | 0.8
CCOC(=O)c1c(C)n(-c2ccccc2)c2ccc(OC(=O)c3ccc(-c4ccccc4)cc3)cc12 | . | -1.1
CC(=O)Nc1ccc(C(=O)NN)cc1 | 9.0 | -2.5
O=C1CC(c2cccs2)Sc2nc3ccccc3n21 (configuration not stated) | -8.0 | .
CCOC(=O)N1CCN(C(=O)C2CC(c3ccc(OC)c(OC)c3)=NO2)CC1 (configuration not stated) | -18.0 | .
C/C(=N\N=C1/NC(=O)C(CC(=O)O)S1)c1ccc(C)o1 (configuration not stated) | -8.0 | 5.4
CC(Sc1nnc(N)s1)C(=O)N1N=C(c2ccc(Cl)cc2)CC1c1ccco1 (configuration not stated) | 6.0 | .
COc1cccc(CNC(C)C23CC4CC(CC(C4)C2)C3)c1OCc1cccs1 (configuration not stated) | 3.0 | -1.4
Cc1n[nH]c(C)c1CCCOc1ccccc1 | -2.0 | -0.2
CCc1ccccc1NC(=O)N1CCC(NC(=O)C(Cc2ccccc2)NC(C)=O)CC1 (configuration not stated) | -5.0 | -1.5
CC12CCC(C(=O)Nc3ccccc3)(OC1=O)C2(C)C (configuration not stated) | 13.0 | 0.2
O=C(OCc1cc(=O)oc2cc(O)ccc12)c1cc(Br)ccc1O | 14.0 | .
COc1ccc2c(CC(=O)Oc3ccc(-c4ccc(C#N)cc4)cc3)coc2c1 | -8.0 | .
O=S(=O)(NCCCNS(=O)(=O)c1cc(Cl)sc1Cl)c1cc(Cl)sc1Cl | . | -1.6
CC1CN=C(N(C(=O)Nc2ccc(Cl)cc2)C(C)c2ccccc2)S1 (configuration not stated) | . | 0.0
CCc1ccc(NC(=O)C2CC3CCCN3C23C(=O)Nc2ccccc23)cc1 (configuration not stated) | -32.0 | .
O=NC1=C(c2c(O)[nH]c3ccccc23)CCCC1 | 27.0 | .
COc1ccc(-c2cc(C(F)(F)F)nc(SC3CC(O)C4OCC3O4)n2)cc1OC (configuration not stated) | -2.0 | 0.7
Cc1ccc(NC(=O)COc2cccc3c2CCN(Cc2cccnc2)C3=O)c(C)c1 | 9.0 | .
COc1ccccc1C(=O)Nc1ccc(S(=O)(=O)NC(C)C)cc1 | 12.0 | 0.2
c1ccc(CSc2nnc(-c3ccco3)n2-c2ccccc2)cc1 | 2.0 | 0.4
COc1cccc2sc(N(CCN(C)C)C(C)=O)nc12 | -3.0 | .
CC(C)(C)CC(=O)NN1C(=O)c2cccc3cccc(c23)C1=O | 0.0 | .
N#Cc1cc(C#N)c(=S)[nH]c1N | -28.0 | .
CCn1c(SCC(=O)c2ccccc2)nnc1-c1cccs1 | 21.0 | .
COc1ccc(OC)c(NC(=O)c2cnc3sccn3c2=O)c1 | 17.0 | .
COc1ccc(C#N)cc1OC | 11.0 | .
O=C1OC2(CCCCC2)OC(=O)C1=CNc1ccc(Cl)cc1C(F)(F)F | 1.0 | -1.9
CCN(C(=O)C(C)Oc1ccccc1)C1CCCCC1 (configuration not stated) | -21.0 | -0.3
Cc1cc(C)n(C(C)CNC(=O)c2ccccc2)n1 (configuration not stated) | 8.0 | -3.0
CCCN(CC(=O)Nc1ccc(F)c(F)c1F)Cc1c(C(=O)OCC)oc2ccccc12 | 15.0 | .
CCOC(=O)N1CCC(n2c(SCC(=O)N(C)Cc3ccccc3)nc3ccccc3c2=O)CC1 | -2.0 | .
O=C(Nc1ccc2oc(-c3cccnc3)nc2c1)c1ccc(-c2ccc(F)cc2)o1 | 5.0 | .
CC(OC(=O)c1cccs1)C(=O)Nc1cccc(Cl)c1Cl (configuration not stated) | 8.0 | 2.2
Clc1c(-c2nnc3n2CCCCC3)sc2ccccc12 | -15.0 | .
COC(=O)/C=C/C(=O)N1CCN(c2ccccc2OC)CC1 | . | 0.8
O=C(OCC(=O)N1CCCC1)c1ccccc1OCc1ccccc1Cl | 15.0 | -1.8
Cc1cccn2c(=O)c(C=C3C(=O)NC(=S)NC3=O)c(N3CCCC3)nc12 | -11.0 | .
COc1ccc(C2Nc3ccccc3C(=O)N2c2ccc(F)cc2)cc1Cn1nc(C)c([N+](=O)[O-])c1C (configuration not stated) | . | -0.5
NNc1nc2cc(Cl)ccc2nc1Cl | . | -1.6
CCc1nn(CC(=O)NCCCN2CCCCC2CC)c(=O)c2cc3sc(C)cc3n12 (configuration not stated) | 13.0 | .
CCN1C(=O)C2C(c3ccc(OC)cc3)NC(CC)(C(=O)OC)C2C1=O (configuration not stated) | 6.0 | 0.3

Whole records from above. Order of values: Sa helicase inh | MgrA DNA FP
`O=C1CC(c2cccs2)Sc2nc3ccccc3n21` (configuration not stated) in the list: -8.0 | .
`CN(C)C(=O)C12CC3CC(CC(C3)C1)C2` in the list: -8.0 | -1.5
`COc1ccc2c(CC(=O)Oc3ccc(-c4ccc(C#N)cc4)cc3)coc2c1` in the list: -8.0 | .
`COc1ccccc1N1CCN(S(=O)(=O)c2ccc(Cl)s2)CC1` in the list: -6.0 | 0.2

Next section.
compound | Sa helicase inh | MgrA DNA FP
CCN(CC)S(=O)(=O)c1cccc(C(=O)OCC(=O)c2cccs2)c1 | 0.0 | .
Clc1cccc(Nc2nnc(-c3ccccc3)c3ccccc23)c1 | . | -1.4
O=C(CSC1=NCCS1)n1c2c(c3ccccc31)CCCC2 | 26.0 | .
O=C(OC(C(=O)NCc1ccc2c(c1)OCO2)c1ccccc1F)c1ccco1 (configuration not stated) | 17.0 | 0.0
C=CCc1cccc2cc(C(N)=O)c(=N)oc12 | -1.0 | -0.1
O=C(Cn1cnc2c(nnn2Cc2ccccc2F)c1=O)NCc1ccc2c(c1)OCO2 | 9.0 | .
Cc1cc(C(=O)OCC(=O)c2ccc3c(c2)OCO3)c2ccccc2n1 | -7.0 | .
COc1ccc(N2CCOCC2)c(NC(=O)c2ccco2)c1 | 3.0 | -2.7
COc1ccccc1CNC(=O)c1ccc(N2CC3CC(C2)c2cccc(=O)n2C3)c(NC(=O)c2ccncc2)c1 (configuration not stated) | -2.0 | .
CC(C(=O)C12CC3CC(CC(C3)C1)C2)N(C)C (configuration not stated) | -12.0 | .
Cc1c(-n2cccc2)cc2c(c1[N+](=O)[O-])C(C)(C)CC2(C)C | . | -2.3
Cc1ccc(CN(C)C(=O)C2CCN(C(=O)Nc3ccccc3)CC2)o1 | -7.0 | .
O=C(COc1cccc(NC(=O)c2ccccc2)c1)NCCOc1ccccc1 | 6.0 | -1.9
N#CC1CCC(CNC(=O)c2sc3ccccc3c2Cl)CC1 (configuration not stated) | . | -2.0
C=CCNC(=O)C1CC(c2ccccc2OC)=NO1 (configuration not stated) | -18.0 | .
CCOC(=O)/C(C#N)=C/Nc1ccn[nH]1 | 4.0 | .
O=C(O)c1cc2ccc(F)cc2[nH]1 | 9.0 | -2.2
COC(=O)C1=C(C)N=C2SC(C)C(=O)N2C1c1ccc(C(C)C)cc1 (configuration not stated) | 8.0 | 1.3
CCCc1c(N)ccc2c(=O)cc(C(=O)OCC)oc12 | . | 9.8
CCOC(=O)c1cnc(S/C=C/C(=O)c2ccccc2)nc1N | . | 0.4
CCO/C=N/c1c(C#N)c(CC#N)nn1-c1ccccc1 | 3.0 | 3.5
O=S(=O)(c1ccc(Cl)cc1)N1CCN(c2nc(-c3cccs3)ns2)CC1 | . | 1.1
N#Cc1c(Cl)cccc1NCCCN1CCCCC1 | . | -0.3
CCOc1ccc(NC(=O)C(Cc2ccccc2)NC(=O)C2CCCCC2)cc1 (configuration not stated) | 13.0 | .
CC(C)Oc1ccc(C(F)(F)F)cc1N | -19.0 | .

By substructure, those above with a tert-butyl group.
compound | Sa helicase inh | MgrA DNA FP
COc1ccc(OCCn2cc(C(=O)C(C)(C)C)c3ccccc32)cc1 | 8.0 | -1.1
CC(C)(C)CC(=O)NN1C(=O)c2cccc3cccc(c23)C1=O | 0.0 | .
